Assay outcomes as filed in PubChem.
D2 ag: Beta-Arrestin HTS for Positive Allosteric Modulators of the Human D2 Dopamine Receptor: Agonists; DiscoveRx PathHunter D2 beta-arrestin, luminescence, 90 min; 100% = 57 uM dopamine signal; AID 624465, 2012; actives 0.084% (n = 360,000); activation, % (test concentration not listed); D(2) dopamine receptor (Homo sapiens), P14416; in the data active = activation above about 40%; inconclusive = about 15% to 40%; inactive = below about 15%; note: compound concentration not given in the record; the text of the record calls up to 30% inactive
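DiscoveRx PathHunter D2 beta-arrestin cells (2,100/well) attached overnight, then compound-stimulated 90 min at 37 C in HBSS/10 mM HEPES/0.1% Tween-20 buffer; beta-galactosidase complementation read by luminescence after 1 h at ambient temperature. Dopamine 57 uM final (EC100) as control.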
Sfp PPTase inh: qHTS Assay for Inhibitors of Bacillus subtilis Sfp phosphopantetheinyl transferase (PPTase); actives 3.5% (n = 310,000); Potency, µM, without a hit: max response, negative = inhibition, usual class: inhibitors; Biochemical Sfp PPTase activity, qHTS; AID 1490, 2009; active = well fitted inhibition curve with a large enough effect; inconclusive = small, poorly fitted or top-dose-only effect, or another doubt; inactive = no such curve, though single readings can be large or run the other way;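 note: the enzyme is Sfp with the accession as filed and its product quenches rhodamine fluorescence; potency is the fitted concentration of half-maximal effect; 0% = enzyme reaction without inhibitor and -100% = no enzyme wells; top concentration of the series not given in the record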
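With Hepes-Na pH 7.6 buffer containing 10 mM MgCl2, Sfp (15 nM) modified BHQ-2-YbbR (12.5 uM) using rhodamine-CoA (5 uM). Two reads 30 minutes apart at 525/598 nm yielded each well's rate.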
Six1-Eya2 blk: qHTS Assay for Inhibitors of the Six1/Eya2 Interaction | actives 0.56% (n = 360,000) | Homeobox protein SIX1 (Homo sapiens) + Protein phosphatase EYA2 (Homo sapiens), … | AlphaScreen GST-Six1/His-Eya2 binding, biochemical; stronger effect = lower value; control for the full effect not named in the record | AID 651725, 2012 | activity change, % (no concentration beside the values); in the data active = activity change below about -65%; inconclusive = about -30% to -65%; inactive = above about -30%; note: % is set by controls: 0 for no effect and ±100 for the full control effect; compound concentration not given in the record
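Homogeneous AlphaScreen proximity assay pairing GST-Six1 with His-tagged Eya2 (added as 5X mix: 250 nM and 500 nM) in 50 mM Tris pH 8.0, 300 mM NaCl, 1 mM TCEP. Glutathione donor and nickel acceptor beads; 1 h, 37 °C, dark.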
TRPV1 potentiator: HTS Assay for Compounds that Act as Potentiators of the Vanilloid Receptor 1; AID 540277, 2011; TRPV1-expressing cells, Fluo-8 calcium influx, capsaicin EC20 potentiation; host cell line not named in the record; control for the full effect not named in the record; potentiation, % at 8.33 µM; actives 0.02% (n = 320,000); Transient receptor potential cation channel subfamily V member 1 (Homo sapiens), Q8NER1; active means potentiation above 80%; inconclusive means 30% to 80%; inactive means below 30%; note: 0% is about no effect
Target sequence (Q8NER1 whole entry, looked up): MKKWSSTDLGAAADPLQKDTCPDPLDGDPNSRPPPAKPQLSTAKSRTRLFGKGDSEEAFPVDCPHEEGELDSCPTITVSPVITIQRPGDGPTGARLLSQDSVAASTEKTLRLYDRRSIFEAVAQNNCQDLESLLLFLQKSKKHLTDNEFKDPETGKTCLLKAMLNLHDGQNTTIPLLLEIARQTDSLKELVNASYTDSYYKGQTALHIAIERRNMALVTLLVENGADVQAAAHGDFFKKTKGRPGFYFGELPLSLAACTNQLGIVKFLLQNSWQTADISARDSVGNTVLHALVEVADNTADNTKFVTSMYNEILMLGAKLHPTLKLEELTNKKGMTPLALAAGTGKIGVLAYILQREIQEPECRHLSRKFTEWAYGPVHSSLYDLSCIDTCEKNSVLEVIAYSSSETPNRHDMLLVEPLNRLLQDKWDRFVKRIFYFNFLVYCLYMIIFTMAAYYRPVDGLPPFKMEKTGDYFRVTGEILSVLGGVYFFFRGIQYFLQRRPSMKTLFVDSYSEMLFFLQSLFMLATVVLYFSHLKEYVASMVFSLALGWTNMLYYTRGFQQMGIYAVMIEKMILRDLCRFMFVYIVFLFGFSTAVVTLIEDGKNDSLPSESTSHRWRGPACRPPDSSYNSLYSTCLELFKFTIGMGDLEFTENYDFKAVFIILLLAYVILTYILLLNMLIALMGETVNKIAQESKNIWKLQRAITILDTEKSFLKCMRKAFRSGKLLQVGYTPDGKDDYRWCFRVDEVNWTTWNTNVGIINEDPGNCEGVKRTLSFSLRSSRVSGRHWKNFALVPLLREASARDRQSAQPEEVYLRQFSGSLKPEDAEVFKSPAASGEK
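TRPV1-expressing cells were cultured overnight at 35.5C and loaded with Fluo-8 calcium dye for 40 to 90 min at room temperature. After a 10 s baseline, compound was added and calcium influx was read kinetically for 3 min (ex 480/em 520 nm).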
PINK1 expr mod: A Quantitative High throughput Screen to Identify Chemical Modulators of PINK1 Expression. PINK1 immunofluorescence, high-content cytometry, 24 h. Potency, µM (titrated, usually from 76.6 µM), inactives show at the highest dose activation (PINK1 increase), usual class: activators. actives 0.2% (n = 410,000). AID 624263, 2012; active = well fitted activation curve with a large enough effect; inconclusive = small, poorly fitted or top-dose-only effect; inactive = flat fitted curve, though single readings scatter; cell line not stated here;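 note: potency is the fitted concentration of half-maximal effect; % of control where 0% means no effect; nearly all actives have a fitted effect of over 65% in size; a mitochondrial uncoupler was the plate control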
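Stable cell line, 250 cells/well, 12 h attachment; compounds pinned at 5 concentrations, 24 h; CCCP control. Fixed with nuclear dye, primary antibodies 12 h at 10 degrees C, secondary plus cell stain; laser-scanning cytometer read.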
D2 potentiator: Beta-Arrestin HTS for Positive Allosteric Modulators of the Human D2 Dopamine Receptor: Potentiators; D(2) dopamine receptor (Homo sapiens), P14416; DiscoveRx D2 beta-arrestin cells, luminescence, 90 min; 100% = 57 uM dopamine signal; potentiation, % (test concentration not listed); actives 0.23% (n = 360,000); active = potentiation of 50% or more; inconclusive = 30% to 50%; inactive = 30% or less;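 note: compound concentration not given in the record; tested on top of an EC20 dose of dopamine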
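PathHunter D2 cells, attached overnight at 37 deg C, received compound in DMSO plus dopamine at EC20 (50 nM final) for 90 min at 37 deg C. Beta-arrestin recruitment was read as luminescence after 1 h with detection reagent at ambient temperature.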
CtBP-E1A inh: qHTS Assay for Inhibitors of the CtBP/E1A Interaction; CtBP / adenovirus E1A interaction (AlphaScreen); AlphaScreen GST-E1A/His-CtBP binding, 1536-well; stronger effect = lower value; control for the full effect not named in the record; activity change, % (concentration not given with the values); actives 0.49% (n = 340,000); AID 651724, 2012; in the data active means activity change below about -65%; inconclusive means about -30% to -65%; inactive means above about -30%; note: % is set by controls: 0 for no effect and ±100 for the full control effect
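Homogeneous bead-based format: GST-tagged E1A captured on glutathione donor beads, His-tagged CtBP on nickel acceptor beads; compounds precede bead addition by 2 h at 37 °C.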
Numbers without * were called inactive; u = inconclusive; x = not tested or not shown; [ ] = dose if it differs, or a comment.

SMILES | D2 ag | Sfp PPTase inh | Six1-Eya2 blk | TRPV1 potentiator | PINK1 expr mod | D2 potentiator | CtBP-E1A inh
O=C(c1ccco1)N1CCN(C(=O)c2ccccc2OCc2ccc(Cl)cc2)CC1 | -1.5 | x | 1 | -6 | 2.0% | u | -6
Nc1[nH]ncc1-c1ccc(Cl)cc1 | -1.0 | 18% | -18 | -9 | 0.5% | -2 | 2
COc1ccc(O)c(C(=O)c2cc(SCC(=O)O)c3nc4sc5c(c4c(=O)n3c2)CCCC5)c1 | 3.2 | u | -23 | -10 | 1.3% | -1 | -16
Cc1ccc(S(=O)(=O)N2CCCC2C(=O)Nc2nc3c(s2)CCCC3)cc1 (stereo not drawn) | -3.0 | 0% | -5 | -7 | -0.9% | -12 | -2
O=C(O)c1nn2c(C(F)(F)F)cc(-c3cccs3)nc2c1Cl | -3.9 | 6% | -74* | -7 | 1.0% | -11 | -67*
Cc1nc2ccccc2nc1N1CCC(C)CC1 | -5.2 | 3% | 27 | 0 | -0.7% | 0 | 22
CCOc1cc2c(cc1OCC)CN(C(=O)c1cccc(S(=O)(=O)N3CCCC3)c1)CC2 | -0.9 | x | -10 | -3 | 3.1% | 9 | x
Cc1cccc(-n2c(CCCN3C(=O)c4ccccc4C3=O)nc3ccccc3c2=O)n1 | -3.1 | 13% | 1 | -2 | 6.3% | -3 | 5
COc1cccc(CC(NC(C)=O)C(=O)NC2CCN(C(=O)c3ccc(Cl)cc3)CC2)c1 (stereo not drawn) | -2.8 | 21% | 0 | -6 | -0.5% | -6 | 1
CCOC(=O)C1=C(CSc2nc3ccccc3s2)NC(=O)NC1c1cccc([N+](=O)[O-])c1 (stereo not drawn) | -0.6 | -17% | -1 | -14 | x | 0 | -3
Cc1ccc(NC(=O)c2oc3ccc(S(=O)(=O)N4CCOCC4)cc3c2C)cc1C | -0.4 | 6% | 1 | -7 | 18%[38.3 µM] | 0 | 3
COc1ccc(C=O)cc1COc1ccc(F)cc1F | -1.0 | -11% | 10 | 6 | 2.4% | -4 | 11
O=C(NCC(=O)N1CCCCCCC1)c1ccccc1Cl | -7.3 | x | 11 | -1 | -1.2% | -4 | -1
CC(=O)Nc1cc2c(cc1C(=O)c1ccccc1)OCCO2 | -4.9 | 23% | 19 | 8 | 0.7% | -18 | 0
Cc1nnc(SCC2=C(C(=O)O)N3C(=O)C(NC(=O)Cn4ncc(Cl)c4C)C3SC2)s1 (stereo not drawn) | 12 | 28µM* | -14 | 0 | 0.0% | -6 | 7
Cc1ccc(OCCC(=O)OCC(=O)NNC(=O)c2ccccc2)cc1 | -4.0 | x | -1 | -3 | -0.6% | -32 | 10
Cc1nc(S(=O)(=O)Cc2ccccc2)nc2c1CCC2 | 6.8 | 8% | 9 | 6 | 3.6% | -8 | 7
CCCCCCCCCCCCCC(=O)O | -5.8 | x | 25 | 3 | 3.5% | 0 | 4
NC(=S)N=Nc1ccc(NN=C(N)N)cc1 | 5.1 | 0.56µM* | -1 | -2 | -0.6% | -3 | -21
CCCSc1nnc(NC(=O)Nc2ccc(F)cc2)s1 | 2.2 | 10% | -5 | 19 | 14µM* | -22 | 5
Cc1ccc(OCC(=O)NCCNC(=O)c2ccco2)cc1C | 0.9 | 1% | 3 | 27 | 1.6% | 0 | 4
O=C(NCC(=O)N1CCN(S(=O)(=O)c2ccccc2F)CC1)c1ccc2ccccc2c1 | -3.8 | x | -2 | -3 | -3.5% | -22 | -5
CCOc1ccc(OCC)c(NC(=O)CSc2nc3c(c(=O)n(C)c(=O)n3C)n2C(C)C)c1 | -2.0 | 2% | -14 | -1 | 12%[38.3 µM] | -23 | 5
Cc1ccccc1OCC(=O)Nc1ccccc1C(=O)N1CCCCC1 | 3.7 | 16% | -3 | -13 | 2.2% | -11 | -4
CN(CCC(=O)Nc1ccc(Br)cc1)Cc1ccccc1 | -3.9 | -9% | 6 | 6 | 3.2% | -43 | -2
Continuation:
SMILES | D2 ag | Sfp PPTase inh | Six1-Eya2 blk | TRPV1 potentiator | PINK1 expr mod | D2 potentiator | CtBP-E1A inh
O=C(Nc1cccc(OC(=O)c2ccco2)c1)c1ccco1 | -2.4 | 4% | 19 | -7 | 4.6% | -7 | 38
c1ccc(-c2nnc(-c3ccccn3)nc2NC2CCCCC2)cc1 | -4.8 | 1% | -84* | -13 | -0.1% | -12 | -95*
COc1ccccc1/C=N/n1c(N)c(S(=O)(=O)c2cccs2)c2nc3ccccc3nc21 | -1.5 | -6% | 3 | 6 | x | -30 | 8
Cc1ccc(NC(=S)N2CCCC(O)C2)cc1 (stereo not drawn) | 0.7 | 7% | -7 | 0 | 3.8% | -9 | -10
Cc1ccc(C)c(NC(=O)CN(C)C(=O)COc2ncnc3sccc23)c1 | 0.0 | 3% | -1 | 0 | -1.4% | -21 | -4
O=C(N/N=C/c1cc([N+](=O)[O-])ccc1O)c1ccc2c(c1)OCCO2 | -8.5 | -5% | -81* | 2 | 5.6% | -28 | 0
CCn1nc([N+](=O)[O-])c(C(C#N)c2nc3ccccc3n2C)c(Cl)c1=O (stereo not drawn) | -3.6 | -1% | u | 8 | -1.5% | -17 | 0
CCOc1ccc(N2CC(C(=O)NCCc3ccc(F)cc3)CC2=O)cc1 (stereo not drawn) | 0.6 | 10% | -1 | -10 | 0.1% | -7 | -5
O=C(O)c1ccc(N/N=C/c2c(F)cccc2Cl)cc1 | -3.8 | 9% | -1 | 6 | -1.3% | -11 | 6
O=C(Nc1csc(Cl)c1)c1ccccc1 | 0.8 | x | 6 | x | 0.6% | -5 | 11
Cn1nnnc1SCC(=O)Nc1ccc2c(c1)OCCO2 | -4.5 | 12% | -3 | -15 | -2.1% | -6 | x
COC(=O)C1=C(Nc2ccccc2NS(=O)(=O)c2ccc(C(F)(F)F)cc2Cl)CSC1 | 1.1 | -2% | 2 | 4 | 11% | -1 | 1
CCOC(=O)C(CC)n1cnc2c(nnn2-c2ccc(C)cc2)c1=O (stereo not drawn) | 1.3 | 18% | 3 | 1 | 0.3%[38.3 µM] | -12 | -6
COc1ccc(C(=O)NCc2ccc(-n3cccc3)cc2)cc1OC | -1.1 | 9% | -13 | -12 | 3.1% | -6 | -7
Cn1nccc1NC(=O)COCC(=O)O | 0.2 | 9% | 1 | 7 | 0.7% | -7 | -3
O=C(NCc1ccc(Cl)cc1)c1cc([N+](=O)[O-])ccc1Cl | -3.1 | 28% | 8 | 2 | 2.7% | -3 | -2
CC(C)NC(=O)CSc1nc2sccc2c(=O)n1-c1ccccc1 | 2.2 | 3% | 0 | 8 | -0.4% | 4 | 23
COCCNC(=S)NCc1ccc2[nH]c3c(c2c1)CCCC3 | -1.8 | 11% | -17 | 17 | 2.9% | -2 | -16
Cc1cccc(C)c1OCc1n[nH]c(=S)o1 | 0.0 | 10% | 10 | 2 | 1.7% | 14 | 0
CC1=C(C(=O)N(C(C)C)C(C)C)CC(CC(=O)NC2CC2)C(=O)N1Cc1ccccc1 (stereo not drawn) | -1.8 | x | -3 | x | 1.8% | -5 | 8
Nc1ccn(-c2ncc(C(F)(F)F)cc2Cl)c(=O)n1 | 5.8 | 20% | -4 | -12 | 1.6% | 0 | 0
Cc1cccn2c(=O)nc(SCC(=O)N3N=C(c4cccs4)CC3c3ccc(F)cc3)nc12 (stereo not drawn) | -4.0 | x | -15 | 10 | 1.7% | -16 | -5
Cc1cccc(NC(=O)c2ccc3nccnc3c2)n1 | -5.0 | 5% | -6 | 5 | 2.2% | -8 | -10
CC(C)N(C(=O)[C@H]1C[C@H](CC(=O)NCCN2CCOCC2)C(=O)N2CCc3c([nH]c4cc(CCC(=O)N(C)C)ccc34)[C@]12C)C(C)C | 3.1 | x | -2 | x | 0.9% | x | 3
COc1ccc(C(=O)N(C)Cc2cnn(Cc3ccccc3)c2)cc1S(=O)(=O)N1CCOCC1 | 2.8 | x | -1 | 0 | 10% | 13 | x
CN(C(=O)c1ccncc1)c1ccccc1 | -0.1 | 26% | -1 | -7 | -0.5% | -12 | x
COc1cc(C(=O)Nc2nnc(C(F)(F)F)s2)c([N+](=O)[O-])cc1OC | 2.0 | 2% | 4 | 2 | 2.0% | -10 | x
CCOC(=O)N1CCN(CC(=O)Nc2ccc(OC)cc2)CC1 | 2.0 | 6% | 6 | -10 | -0.4% | 1 | 8
COc1ccc(C(=O)c2ccc([N+](=O)[O-])cc2)c(OC)c1OC | -0.4 | x | 3 | x | 0.2% | -2 | 10

Sorted by molecular weight (smallest number first): some entries from above
SMILES | D2 ag | Sfp PPTase inh | Six1-Eya2 blk | TRPV1 potentiator | PINK1 expr mod | D2 potentiator | CtBP-E1A inh
Cn1nccc1NC(=O)COCC(=O)O | 0.2 | 9% | 1 | 7 | 0.7% | -7 | -3
Cc1ccc(NC(=S)N2CCCC(O)C2)cc1 (stereo not drawn) | 0.7 | 7% | -7 | 0 | 3.8% | -9 | -10
Cn1nnnc1SCC(=O)Nc1ccc2c(c1)OCCO2 | -4.5 | 12% | -3 | -15 | -2.1% | -6 | x
COc1ccc(C(=O)c2ccc([N+](=O)[O-])cc2)c(OC)c1OC | -0.4 | x | 3 | x | 0.2% | -2 | 10
CCOC(=O)C(CC)n1cnc2c(nnn2-c2ccc(C)cc2)c1=O (stereo not drawn) | 1.3 | 18% | 3 | 1 | 0.3%[38.3 µM] | -12 | -6
CCOc1ccc(N2CC(C(=O)NCCc3ccc(F)cc3)CC2=O)cc1 (stereo not drawn) | 0.6 | 10% | -1 | -10 | 0.1% | -7 | -5
CCn1nc([N+](=O)[O-])c(C(C#N)c2nc3ccccc3n2C)c(Cl)c1=O (stereo not drawn) | -3.6 | -1% | u | 8 | -1.5% | -17 | 0
COC(=O)C1=C(Nc2ccccc2NS(=O)(=O)c2ccc(C(F)(F)F)cc2Cl)CSC1 | 1.1 | -2% | 2 | 4 | 11% | -1 | 1
